Menin-MLL FL inh = inhibitors of human menin-MLL interaction, wild-type MLL peptide; Fluorescence polarization, fluorescein-MLL peptide displacement from menin; FP activity change, % at 61.4 µM; 290,000 tested, under 10 active; AID 1766; inconclusive = falling polarisation curve, or a change in total fluorescence; inactive = total fluorescence flat and polarisation flat or rising; no compound was filed as active; the % refers to the polarisation; negative = inhibition;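 further: % of control where 0% means no effect; inhibitors lower the polarisation; unlabelled MLL peptide was the positive control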
gsp ag = activates gsp, the McCune-Albright syndrome mutation; gsp mutant cells, cAMP HTRF, 30 min; control for the full effect not named in the record; Potency, µM (highest dose often 76.9 µM), without a hit: at the top dose activation (cAMP increase), actives largely listed as activators; 340,000 tested, 0.13% active; active = well fitted activation curve with a large enough effect; inconclusive = small, poorly fitted or top-dose-only effect, or another doubt; inactive = no such curve, though single readings can be large or run the other way; cell line not stated here;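 further: phosphodiesterase inhibitor Ro 20-1724 added with compounds to block cAMP breakdown; potency means the concentration at half of the fitted maximal effect; nearly all actives have a fitted effect of over 60% in size; about a fifth of the inactives were tested at one dose only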
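Cells in DMEM/10% FBS with G418 were pretreated with compounds in DMSO plus […] (300 uM stock) for 30 min at 37C. cAMP was measured by HTRF (cAMP-d2 plus anti-cAMP antibody-K) after 30 min at room temperature.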
ClpP mod = qHTS Assay for Activators of ClpP; purified B. subtilis ClpP, FRET peptide cleavage, 20 min; Potency, µM (series often up to 57.5 µM), for inactives: at the highest dose activity change, negative = active; 340,000 tested, 1.9% active; ATP-dependent Clp protease proteolytic subunit (Bacillus subtilis (strain 168)), P80244; active = well fitted falling curve with a large enough effect; inconclusive = small, poorly fitted or top-dose-only effect; inactive = no such curve, though single readings can be large or run the other way; further: potency means the concentration at half of the fitted maximal effect; the source files actives as falling curves though it sought activators and does not explain the sign; nearly all actives have a fitted effect of over 65% in size; many hits overshoot -100%
Target sequence (P80244 whole entry, looked up): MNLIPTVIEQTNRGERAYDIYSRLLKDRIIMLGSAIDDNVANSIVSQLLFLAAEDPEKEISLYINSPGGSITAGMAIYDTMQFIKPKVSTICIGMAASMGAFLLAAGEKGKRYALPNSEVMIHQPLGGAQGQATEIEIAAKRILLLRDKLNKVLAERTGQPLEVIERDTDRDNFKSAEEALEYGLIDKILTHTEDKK
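FRET quenching reversal measured ClpP activation: 10 microg/mL B. subtilis ClpP at pH 8 with the FRET-FV decapeptide, read at 430 nm after 320 nm excitation. The 20-min minus 0-min signal was scaled between DMSO/no-enzyme wells and ADEP (5.8 microM final).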
TRPML1 blocker = blocks the human TRPML1 channel; 390,000 tested, 0.02% active; Q9GZU1; activity change, negative = inhibition, % (concentration not given with the values); TRPML1-inducible cells, Ca2+ dye fluorescence, FDSS; stronger effect = lower value; inhibition of EC80 agonist-evoked calcium signal; in the data active means activity change below about -50%; inconclusive means about -30% to -50%; inactive means above about -30%;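 further: stimulus is agonist 54-4 at its EC80 concentration; on the % scale 0 is the no-effect control and ±100 the full control effect; compound concentration not given in the record; the text of the record puts the active cut at -80%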
Target sequence (Q9GZU1 whole entry, looked up): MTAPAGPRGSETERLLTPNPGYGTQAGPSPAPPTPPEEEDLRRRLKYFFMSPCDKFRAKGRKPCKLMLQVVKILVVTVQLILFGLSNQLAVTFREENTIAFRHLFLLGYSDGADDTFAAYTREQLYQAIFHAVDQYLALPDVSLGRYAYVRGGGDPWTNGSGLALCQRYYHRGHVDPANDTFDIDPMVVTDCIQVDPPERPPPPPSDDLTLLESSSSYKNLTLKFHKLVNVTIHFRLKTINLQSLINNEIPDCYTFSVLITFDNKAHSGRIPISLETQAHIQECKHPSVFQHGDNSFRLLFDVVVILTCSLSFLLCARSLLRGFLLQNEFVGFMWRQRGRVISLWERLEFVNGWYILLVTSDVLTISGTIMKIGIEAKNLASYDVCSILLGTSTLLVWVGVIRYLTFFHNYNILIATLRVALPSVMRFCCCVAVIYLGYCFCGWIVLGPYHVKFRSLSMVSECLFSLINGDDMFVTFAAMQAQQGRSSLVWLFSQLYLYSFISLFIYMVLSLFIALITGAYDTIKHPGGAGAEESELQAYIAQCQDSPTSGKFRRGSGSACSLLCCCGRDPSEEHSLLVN
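Tet-induced TRPML1-DL cells loaded with Ca8 no-wash calcium dye were read kinetically on FDSS. Compound addition was followed by EC80 agonist 54-4 (4 uM final); inhibition was read over 110 s.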
gsp antag = antagonists of gsp mutant (McCune-Albright syndrome); gsp-mutant cells, cAMP HTRF, 30 min; control for the full effect not named in the record; Potency, µM (highest dose often 76.9 µM), for the others: at the top dose activity change, negative = inhibition, most hits filed as inhibitors; 340,000 tested, 0.4% active; AID 624288; active = falling curve of any shape with a large fitted effect; inconclusive = falling curve, mostly with a smaller effect; inactive = flat or rising curve; cell line not stated here;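 further: intracellular cAMP measured with PDE inhibitor Ro 20-1724 present during compound exposure; potency means the concentration at half of the fitted maximal effect; on the % scale 0 is the no-effect control and ±100 the full control effect; nearly all actives have a fitted effect of over 65% in size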
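HTRF cAMP measurement after 30 min RT detection following 30 min, 37C compound treatment alongside […] (added as 300 uM solution) in G418-selected cells seeded at 2000/well and grown 16–24 h.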
TRPML1 ag = agonists of human TRPML1 channel | 410,000 tested, 0.12% active | activation, % (concentration not given with the values) | TRPML1-expressing cells, Ca2+ dye fluorescence, FDSS; host cell line not named in the record; reference of the full effect not given here | AID 624414 | Q9GZU1; in the data active = activation above about 50%; inconclusive = about 30% to 50%; inactive = below about 30%; further: 0% is about no effect; the text of the record puts the active cut at 80%
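Cells: TRPML1-DL, 1X Tet inducer, ~16 h at 37 degrees C/5% CO2. Dye: ABD Ca8 no-wash + quencher, 45-90 min RT. Read: 10 s baseline, compound add, 110 s agonist phase; 54-4 EC80 (4uM final), 110 s antagonist phase.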
An asterisk follows results filed as active; ? = inconclusive; . = no result given; [ ] = remark or other dose.

Value order – Menin-MLL FL inh, gsp ag, ClpP mod, TRPML1 blocker, gsp antag, TRPML1 ag
COc1cccc(/C=C2\N=C(c3c(-c4ccccc4)noc3C)OC2=O)c1
 : -0.9, -51%[inhibitor], -3.8%, 3, -3%, 0.5
O=C(C1=NN[C@@H]2C(=O)N(c3ccccc3C(F)(F)F)C(=O)[C@H]12)c1cnccn1
 : 2.1, -44%[inhibitor], 0.2%, -9, 4%, 1.1
O=C1OCc2cc(NC(=O)C3CCCCC3)ccc21
 : -2.3, -31%[inhibitor], -0.8%, 12, 2%, -0.6
Cc1cccc(N2CCN(C(c3ccc(N(C)C)cc3)c3nnnn3C(C)(C)C)CC2)c1C (centres undefined)
 : -1.1, -20%, -1.6%, -9, 10%, -0.4
Cc1nc2ncnn2c(N2CCN(c3cccc(C(F)(F)F)c3)CC2)c1C
 : 1.3, -29%, 0.2%, 0, ?, 3.3
COc1ccc(C(=O)CCS(=O)(=O)c2ccc(C)cc2)cc1OC
 : -0.4, -4%, -28%, -27, 1%, 0.7
O=C(Nc1c2c(nn1-c1ccccc1)CS(=O)(=O)C2)c1ccccc1Br
 : ., -9%[15.4 µM], -0.7%, 29, 2%, -0.9
O=C(N/N=C/c1ccc(N2CCOCC2)o1)c1cccc(F)c1
 : 5.1, -15%, 1.8%, -8, 7%, -0.1
Cc1ccc(S(=O)(=O)N(C)CC(=O)OCC(=O)NCCc2ccc(S(N)(=O)=O)cc2)cc1
 : ., ?, -2.7%, 3, 3%, 1.1
Cc1cc(C)c(S(=O)(=O)N2CCCC(C(=O)N3CCOCC3)C2)c(C)c1 (centres undefined)
 : -8.1, -1%, -1.2%, 16, -4%, 0.7
Cc1ccc(Cl)cc1NC(=O)CCS(=O)(=O)c1ccc(Br)s1
 : ., ., -0.1%, 12, ., 1.1
COc1ccc(/C=C/C(=O)NC2CCCCCC2)cc1S(=O)(=O)N1CCOCC1
 : 0.6, -11%[15.4 µM], -17%, 0, -5%, 0.0
CCOC(=O)C1=C(COC(=O)Cc2ccccc2F)NC(=O)NC1C (centres undefined)
 : ., 7%, -25%, 1, 11%, -1.0
COC(=O)c1ccc(C(=O)NC(=S)Nc2nc3c(s2)CC(C)CC3)cc1 (centres undefined)
 : -0.1, -7%, 0.5%, 18, 3%, -0.8
CCC(CC)COC(=O)C1=C(C)NC(=O)NC1c1cccc([N+](=O)[O-])c1 (centres undefined)
 : 6.3, -20%, 0.8%, -10, -1%, 1.8
CCOc1ccccc1-n1nnc(-c2nc(-c3ccccc3)no2)c1N
 : ., ., -17%, -17, ., -0.2
COc1ccc(S(=O)(=O)N2CCN(C(C)C(=O)Nc3ccc(C(C)C)cc3)CC2)cc1 (centres undefined)
 : ., -14%, -0.3%, 4, -13%, 1.3
c1cnc(N2CCN(c3ccc4ccccc4n3)CC2)nc1
 : -2.0, -20%, 3.3%, -8, -17%, 1.7
O=C(CNS(=O)(=O)c1ccc2c(c1)OCCCO2)N1CCN(Cc2ccccc2)CC1
 : ., -63%[inhibitor], 2.9%, -9, 1%, -0.4
O=C(Nc1ccc(Oc2ncnc3cc(Cl)ccc23)nc1)c1cccs1
 : 1.5, 5%, 6.5%, -11, 16%, -0.9
COc1ccc(OC)c(C2CC(=O)Nc3n[nH]c(-c4ccccc4)c32)c1 (centres undefined)
 : -3.2, -74%[inhibitor], -0.8%, 1, 5%, 0.3
CCOC(=O)C1=C(c2ccccc2)OC(N)=C(C#N)C1C(C)C (centres undefined)
 : -3.1, 0%, -1.1%, 14, 4%, -0.1
Cc1cccc(C)c1NC(=O)CN(C)C(=O)[C@H](C)NC(=O)c1ccco1
 : ., -46%[inhibitor], -3.3%, -7, 11%, 0.5
CC(C)CCNC(=O)CSc1nc2ccccc2nc1Cc1ccc(Cl)cc1
 : ., ., -0.5%, 11, ., 1.1
COc1ccc(N2CC(NC(=O)N3CCN(c4ccccc4)CC3)CC2=O)cc1 (centres undefined)
 : -0.3, -16%, ., -7, 6%, -0.5
O=C(Cn1cnc2c(nnn2Cc2ccccc2)c1=O)N1CCCc2ccccc21
 : 1.1, 14%, 0.2%, 24, -1%, -0.1
CC(=O)NC(CCS(C)(=O)=O)C(=O)Nc1ccc(Cl)c(Cl)c1 (centres undefined)
 : 1.8, 18%, 1.5%, 29, 3%, -0.4
Cc1cccc(NC(=O)c2ccc3nsnc3c2)c1C
 : -3.3, 19%[15.4 µM], ., -2, 2%, 1.9
CC(C)CN(CCCNC(=O)CN1C(=O)COc2ccc(S(=O)(=O)N3CCCC3)cc21)CC(C)C
 : 1.2, 14%, -2.3%, -13, 2%, 0.0
CCSc1nc(-c2ccco2)ccc1C#N
 : 10, 3%, ?, 1, -8%, -0.8

Further results.
Value order – Menin-MLL FL inh, gsp ag, ClpP mod, TRPML1 blocker, gsp antag, TRPML1 ag
CCC(CC)c1nn2c(=O)cc(COc3ccc(NC(=O)c4ccccc4C)cc3)nc2s1
 : ., ., -2.4%, 8, ., -0.3
CC(C)OCCCNC(=O)CN1C(=O)c2cccnc2Sc2ccccc21
 : ., ., 0.7%, 10, ., 2.8
C/C(=N\NC(=O)c1nnn(-c2nonc2N)c1-c1cccs1)c1ccc(O)cc1
 : ., -3%, 15%, 3, -27%, -0.5
CC1CCN(C(=O)CCNS(=O)(=O)c2ccc3c(c2)oc(=O)n3C)CC1
 : ., ?, -1.1%, 3, 3%, -0.4
CC(C)CCn1c(COc2ccccc2)n[nH]c1=S
 : -1.8, 2%, 0.1%, 3, 0%, 0.2
COc1cc(C(=O)N/N=C(\c2ccccc2)c2ccccn2)cc(OC)c1OC
 : -0.7, ?, -0.7%, 29, -13%, 0.1
COc1cc(C(=O)N(C)CCOc2ccc(C)cc2)ccc1OC1CCN(C(C)=O)CC1
 : -3.0, -61%[inhibitor], ., 5, -5%, -0.3
c1ccc2c(c1)oc1c(NCCCN3CCOCC3)ncnc12
 : -2.4, ?, -1.7%, -14, 8%, -0.4
O=C(Nc1cc(Br)ccc1O)C1CC(c2c(F)cccc2Cl)=NO1 (centres undefined)
 : 6.8, ?, 0.1%, -8, -22%, 1.7
COc1ccc(OCCCC(=O)Nc2cccc([N+](=O)[O-])c2C)cc1
 : 5.5, -15%, 0.8%, 0, -1%, 1.5
O=C1CSC2(C(=O)N(Cc3ccccc3F)c3ccccc32)N1c1ccc(F)cc1 (centres undefined)
 : ., ., -3.7%, 10, ., 2.1
CC12CN3CCN(CC(C3)/C1=N\N=C1/C3CN4CCN(C3)CC1(C)C4)C2
 : 4.0, 23%, -1.4%, 1, 3%, 1.1
CCN(CC)C(=O)C(=O)c1cccn1-c1ccccc1C#N
 : -1.8, 4%, 0.7%, 2, -4%, -0.4
COc1ccc(-n2nc(C(=O)Nc3cc(OC)c(OC)c(OC)c3)c3ccccc3c2=O)c(OC)c1
 : 0.2, -61%[inhibitor], 2.1%, 16, -14%, 0.2
Cc1ccc(/C=C2\SC(=S)N(CC(=O)Nc3cccnc3)C2=O)cc1
 : -0.3, -13%[15.4 µM], ., -3, 0%, 1.5
COc1cc2c(=O)c(S(=O)(=O)c3ccccc3)cn(CC(=O)Nc3ccccc3C)c2cc1OC
 : ., ., -27%, 50, ., -0.2
COc1cc(/C=C/C(=O)OCc2cn3cc(Cl)ccc3n2)ccc1O
 : 0.6, 25%, -17%, 3, 7%, 1.3
Cc1ccc(C)c(SCC(=O)OCC(=O)Nc2ccc(S(=O)(=O)N3CCOCC3)cc2)c1
 : 1.9, 6%, -0.8%, 8, 3%, 1.1
COC(=O)c1ccc(-n2c(C)cc(/C=N/n3cnnc3)c2C)cc1
 : 2.8, 6%, -5.2%, 23, -4%, -0.6
O=C(COC(=O)C1CC(=O)N(c2nc(-c3ccccc3)cs2)C1)c1ccccc1 (centres undefined)
 : 1.5, -8%, -3.5%, 12, -12%, 1.0
CCOc1ccc2[nH]cc(C(=O)N3CCN(C4CCCCC4)CC3)c(=O)c2c1
 : ., -17%, ?, 6, 5%, -0.1
CCOC(=O)c1sc(C)c2c1NC(C)(c1cccc3ccccc13)NC2=O (centres undefined)
 : 4.6, -40%[inhibitor], 28µM*, -3, 7%[15.4 µM], 1.7
OC(COc1ccc2ccccc2c1Br)Cn1cnc(-c2ccccc2)c1 (centres undefined)
 : -0.6, ?, 1.3%, -5, 1%, 2.1
Cc1cc(C)c(S(=O)(=O)NCc2ccncc2)c(C)c1
 : 1.7, ?, 2.5%, -3, -12%, -0.9
COc1ccc(/C=N/c2oc(-c3ccccc3)cc2C#N)cc1OC
 : 7.2, 30%, ?, -5, -2%, -0.5
COc1ccc([C@H]2CC(=O)C=C(c3cccc(OC)c3)C2)cc1
 : ., -42%, 0.0%, 11, -8%, 3.3
CSc1ccc(C(=O)C2CCCN(C(=O)CCc3cnn(C)c3)C2)cc1 (centres undefined)
 : -5.1, 7%, 1.0%, -8, 6%, 1.3
CCOc1ccc(C(=O)NCC(c2cccs2)N2CCOCC2)cc1 (centres undefined)
 : ., -29%, 2.8%, -13, 7%, -0.7
COCCNC(=O)C(c1ccc(O)cc1)N(C(=O)CCC(=O)Nc1nccs1)c1cccc(C)c1 (centres undefined)
 : -2.0, -4%, ., 6, 3%, 2.4
CN(C)CCCCOc1ccc(F)cc1
 : -6.8, -2%[15.4 µM], ., 11, 10%, 0.7

In the list so far, two contain a nitro group on carbon:
Value order – Menin-MLL FL inh, gsp ag, ClpP mod, TRPML1 blocker, gsp antag, TRPML1 ag
CCC(CC)COC(=O)C1=C(C)NC(=O)NC1c1cccc([N+](=O)[O-])c1 (centres undefined)
 : 6.3, -20%, 0.8%, -10, -1%, 1.8
COc1ccc(OCCCC(=O)Nc2cccc([N+](=O)[O-])c2C)cc1
 : 5.5, -15%, 0.8%, 0, -1%, 1.5

Further compounds follow:
Value order – Menin-MLL FL inh, gsp ag, ClpP mod, TRPML1 blocker, gsp antag, TRPML1 ag
Cc1nccc(-c2cccc(N/N=C(\C#N)C(=O)c3ccccc3)c2)n1
 : -1.2, -1%, -0.4%, 20, ?, 1.2
O=C(Cn1cnnn1)NC1CCCN(Cc2ccccc2F)C1 (centres undefined)
 : 2.8, 0%, ., -7, -3%, -0.4
O=C(c1ccco1)N1CCN(c2ncnc3scc(-c4ccc(F)cc4)c23)CC1
 : 3.2, 6%, -1.3%, 39, 5%, 0.8
COc1ccc(OC)c(NC(=O)COC(=O)CCCN=C2NS(=O)(=O)c3ccccc32)c1
 : ., 19%, ., 13, -8%, -0.1
COc1ccc(NC(=O)CN2C(=O)C3(SCC(=O)N3c3cccc(OC)c3)c3ccccc32)cc1 (centres undefined)
 : ., ., 1.5%, -2, ., 0.7
COc1ccc(C2CC(=O)c3c(ccc4ccccc34)N2)cc1OC (centres undefined)
 : 3.0, -12%, -2.8%, 6, -1%, -1.1
CCOc1cc(C(=O)NC(=S)Nn2cnnc2)cc(OCC)c1OCC
 : -0.4, 1%[15.4 µM], -1.5%, -7, -30%, -1.3
